# High-throughput results: PubChem BioAssay, National Center for Advancing Translational Sciences (NCATS)
# A488 autofl – qHTS Assay for Spectroscopic Profiling in A488 Spectral Region; compound autofluorescence, A488 spectral region, dye equivalency; hits give high values; max dye equivalency, M; 0.1% of 59,000 active; AID 591, 2007; active = above 10 nM dye equivalent; inconclusive = 1 to 10 nM; inactive = 1 nM or less; about half of its hits are not listed in these tables;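 further: highest value over a series up to 38 µM; compound alone in buffer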
#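 Autofluorescence read at ex 480/em 540 nm after 15 min RT in 100 mM Tris pH 8.0; compound signal normalized to A488 standard series on each plate, reported as dye-equivalent concentration at each test concentration.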
# TSHR ag – qHTS Assay for Agonists of the Thyroid Stimulating Hormone Receptor; 0.48% of 73,000 active; HEK293-CNG-TSHR cells (CNG channel as cAMP sensor), membrane potential dye, cAMP; Thyrotropin receptor (Homo sapiens), P16473; Potency, µM (top dose mostly 57.1 µM), without a hit: at the highest dose activation, most hits filed as activators; AID 926, 2007; active = well fitted activation curve of enough size with the parental cells flat; inconclusive = any curve in the parental cells; inactive = parental cells flat and receptor cells flat or falling; further: potency means the concentration at half of the fitted maximal effect; % of control where 0% means no effect; weak receptor curves with flat parental cells got no call and are not listed
# Target sequence (P16473 whole entry, looked up): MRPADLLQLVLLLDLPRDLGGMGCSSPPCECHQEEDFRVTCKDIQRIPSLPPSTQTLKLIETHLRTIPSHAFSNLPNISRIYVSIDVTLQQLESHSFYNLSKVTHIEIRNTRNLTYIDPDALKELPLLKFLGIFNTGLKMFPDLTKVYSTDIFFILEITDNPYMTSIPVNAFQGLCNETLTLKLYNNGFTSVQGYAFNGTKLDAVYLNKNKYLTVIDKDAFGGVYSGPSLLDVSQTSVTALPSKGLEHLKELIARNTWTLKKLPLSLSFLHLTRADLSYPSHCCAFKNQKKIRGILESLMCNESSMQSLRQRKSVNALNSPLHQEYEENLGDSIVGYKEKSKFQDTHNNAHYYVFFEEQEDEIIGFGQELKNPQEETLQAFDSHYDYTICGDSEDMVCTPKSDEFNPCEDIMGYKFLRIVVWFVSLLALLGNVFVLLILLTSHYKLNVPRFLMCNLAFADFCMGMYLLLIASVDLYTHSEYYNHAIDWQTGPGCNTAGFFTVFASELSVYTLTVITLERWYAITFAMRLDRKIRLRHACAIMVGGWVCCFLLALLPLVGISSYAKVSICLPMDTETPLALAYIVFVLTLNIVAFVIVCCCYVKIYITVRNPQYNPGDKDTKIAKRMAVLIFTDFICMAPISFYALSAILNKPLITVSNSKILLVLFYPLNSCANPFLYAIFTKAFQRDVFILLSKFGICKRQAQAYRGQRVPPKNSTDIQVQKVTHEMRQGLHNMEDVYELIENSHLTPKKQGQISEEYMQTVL
#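 HEK 293 cells stably expressing TSHR and a modified CNG channel, with CNG-only parental cells as counterscreen, were preloaded 60 min at room temperature with membrane potential dye containing 100 uM RO 20-1724. Compound exposure was 30 min, and depolarization was read as fluorescence at 590 nm.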
# A647 fluor – qHTS Assay for Spectroscopic Profiling in A647 Spectral Region | 59,000 tested, under 10 active | AID 592, 2007 | max dye-equivalent concentration, M | Compound fluorescence, A647 channel (570/671 nm), Tris buffer; active means above 1 µM dye equivalent; inconclusive means 0.1 to 1 µM; inactive means 0.1 µM or less;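 further: values scaled relative to a standard on each plate; highest value over a series up to 38 µM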
#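 Spectral profiling of library compounds in pH 8.0 Tris: 15 min room-temperature incubation, single ex/em pair (570/671 nm), response normalized to Alexa 647 equivalents.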
# AID923 – qHTS Assay for Allosteric/Competitive Inhibitors of Caspase-1: Spectroscopic Profiling in AFC Spectral Region | compound fluorescence, AFC spectral region (405/520 nm); almost no hit is shown here | Potency, µM (top dose mostly 57.5 µM), for inactives: at the top dose fluorescence increase, actives largely listed as activators | 1.1% of 75,000 active; active means well fitted activation curve with a large enough effect; inconclusive means small, poorly fitted or top-dose-only effect;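 further: potency means the concentration at half of the fitted maximal effect; 0% is about no effect; scaled to a free AFC standard on each plate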
#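 Baseline compound fluorescence (AFC region, 405 nm ex/520 nm em) taken from the intercept of kinetic reads with 50 nM caspase-1 and 5 uM Ac-WEHD-AFC; normalized to an on-plate AFC standard curve; compounds titrated up to 57 uM.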
# Resorufin autofl – qHTS Assay for Spectroscopic Profiling in Resorufin Spectral Region; Compound fluorescence, resorufin region 547/598 nm, buffer; hits give high values; max dye-equivalent concentration, M; 0.04% of 59,000 active; active = above 10 nM dye equivalent; inconclusive = 1 to 10 nM; inactive = 1 nM or less; a few of its hits are not listed in these tables; further: highest value over a series up to 38 µM
#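 Intrinsic fluorescence profiled in the resorufin window (ex 547 nm, em 598 nm) after 15 min at room temperature in pH 8.0 Tris buffer (100 mM); responses normalized against a six-point resorufin standard series as dye-equivalent concentration.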
# * marks the source's active call; other numbers are inactive results; i = inactive; ? = inconclusive; nt = not tested or not shown; [ ] = dose if it differs, or a comment. An excerpt; the hit share may differ from the screen's.
compound,A488 autofl,A647 fluor,Resorufin autofl,AID923,TSHR ag
CC(C)Oc1ccc(NC(=O)C2CCCNC2=O)cc1 (centres undefined),i,1e-09,i,0.6%,-1%
CCCOC(=O)C1=C(C)NC2=C(C(=O)C(C(=O)OC)C(C)C2)C1c1ccc(N(C)C)cc1 (centres undefined),i,1.2e-09,i,18%,4%
COc1cccc(-c2nc3n(n2)C(c2ccccc2Cl)C(C(N)=O)=C(C)N3)c1 (centres undefined),nt,nt,nt,-1.8%,-4%
CC1Cc2ccccc2N1C(=O)CSC1=NCCS1 (centres undefined),i,9e-09,i,0.9%,5%
CC(C)(C)n1nnnc1C(c1cccs1)N1CCCC2(CCCCC2)C1 (centres undefined),i,4.1e-08,i,0.7%,?
CCc1nnc(-n2nc(C)cc2-c2ccccc2)n1N,i,7e-09,i,-2.0%,3%[11.4 µM]
COc1nnc(-c2ccc(N3CCCCC3)c(N)c2)c2ccccc12,i,3.8e-09,i,0.4%,1%
COC(=O)c1ccc(NS(=O)(=O)c2ccc(OC)cc2)cc1,i,2.8e-08,i,0.1%,12%
CC(=O)c1ccc(NC(=O)C2CCCNC2=O)cc1 (centres undefined),i,1.4e-09,i,0.3%,18%
Cc1ccc(-c2nc3ncccn3c2NC2CCCC2)o1,i,1e-09,i,4.1%,?
CCCCCCCNS(=O)(=O)c1cccc2c(Cl)cccc12,nt,nt,nt,-0.8%,?
Cc1[nH]c2ccccc2c1C(=O)CN1CCC(C(N)=O)(N2CCCCC2)CC1,i,2.9e-08,i,1.8%,19%
Oc1ccc(-c2csc(NCc3ccco3)n2)cc1,i,1e-09,i,1.0%,-21%
COc1cc(OC)c(-c2nn3c(-c4ccncc4)nnc3s2)cc1OC,i,1e-09,i,1.4%,-1%
COc1cccc(-c2cc(C(F)(F)F)nc(-n3cncn3)n2)c1,i,8e-09,i,-0.2%,4%

# Single entries from the entries so far:
# Under TSHR ag, COc1cc(OC)c(-c2nn3c(-c4ccncc4)nnc3s2)cc1OC reads -1%
# Under AID923, Oc1ccc(-c2csc(NCc3ccco3)n2)cc1 reads 1.0%
# Under AID923, COC(=O)c1ccc(NS(=O)(=O)c2ccc(OC)cc2)cc1 reads 0.1%
# Under AID923, Cc1ccc(-c2nc3ncccn3c2NC2CCCC2)o1 reads 4.1%
# Under A647 fluor, CC(=O)c1ccc(NC(=O)C2CCCNC2=O)cc1 (centres undefined) reads 1.4e-09
# Under A647 fluor, CC(C)(C)n1nnnc1C(c1cccs1)N1CCCC2(CCCCC2)C1 (centres undefined) reads 4.1e-08

# Next records.
compound,A488 autofl,A647 fluor,Resorufin autofl,AID923,TSHR ag
COc1ccccc1-n1c(=O)c2c3c(sc2n2c(SC)nnc12)CCC3,i,2.8e-08,i,nt,nt
Cn1c(=O)cc(OCCCC(=O)NCc2ccc3c(c2)OCO3)c2ccccc21,nt,nt,nt,-0.6%,7%
COc1cccc(C2NC(=O)NC(O)(C(F)(F)F)C2C(=O)c2cccnc2)c1OC (centres undefined),nt,nt,nt,1.3%,3%[11.4 µM]
CCc1nnc(NC(=O)C2Cc3ccccc3CN2S(=O)(=O)c2cccs2)s1 (centres undefined),i,3.4e-08,i,-0.7%,3%
O=c1c2ccccc2nc2c3ccccc3c(N3CCOCC3)nn12,i,1.6e-09,i,0.2%,-3%[11.4 µM]
COC(=O)CN(c1ccccc1C)S(C)(=O)=O,nt,nt,nt,-1.7%,3%
CC(C)n1nc(C(=O)NCCc2ccc(S(N)(=O)=O)cc2)c2ccccc2c1=O,i,1.1e-08,i,-2.0%,-2%
O=c1cc(-c2ccco2)oc2ccc(Cl)cc12,nt,nt,nt,0.7%,?
CC(C)Cn1c(=O)c2c(nc3n2CCCN3CCc2ccccc2)n(C)c1=O,i,2.9e-08,i,-0.7%,-6%
Brc1cccc(-c2nnc3sc(CN4CCC5(CC4)OCCO5)cn23)c1,i,1e-09,i,0.9%,22%
C=CCn1c(SCC(=O)NC(=O)NC2CCCC2)nnc1C1CCCCC1,i,1e-09,i,-0.5%,?
Clc1cccc(-c2ccc(/C=N/n3cnnc3)o2)c1,nt,nt,nt,-1.6%,4%
COCCn1c(CN2CCC(Cc3ccccc3)CC2)nc2c1c(=O)n(C)c(=O)n2C,i,1.2e-08,i,-1.8%,12%
CC1(C)C(N(O)C(=O)Nc2ccccc2)N(c2cccc(Cl)c2)C(=O)N1O (centres undefined),i,2.3e-08,i,-4.4%,-23%
CCOC(=O)N1CCN(c2nc(C)c3c(n2)CCCC3=O)CC1,i,6.9e-09,i,1.2%,6%
Cc1cccc(OCc2nc(C#N)c(NCc3ccc4c(c3)OCO4)o2)c1,i,3.3e-09,i,0.5%,?
O=C(CNC1=NCCC1)c1ccc2c(c1)OCCO2,i,7e-08,i,nt,nt
O=c1cc(-c2ccccc2)[nH]n1-c1nc2ccccc2[nH]1,i,1.6e-08,i,2.6%,?
CCOc1ccc(Nc2nc3c(c(=O)[nH]2)CCC3)cc1,i,1e-09,i,0.0%,-9%
COc1ccc(NC(=O)c2coc3ccccc23)cc1OC,i,1e-09,i,1.4%,0%
CCn1c(C(=O)N2CCCC(C(=O)NCCCc3ccccc3)C2)cc2sccc21 (centres undefined),i,3.3e-08,i,0.2%,?
CCn1cc(C(=O)NCCOC)c(=O)c2ccc(C)nc21,i,1.7e-08,i,-0.5%,?
O=C(Nc1ccc(F)cc1)Nc1ccc(Cl)cn1,i,4.2e-09,i,-2.4%,22%
Cc1cc(C)cc(NC(=O)C2CCCN(c3nc(C)cc(C)n3)C2)c1 (centres undefined),i,1e-09,i,0.5%,5%
Cc1oc2c(CN3CCOCC3)c(O)ccc2c(=O)c1-c1ccccc1,i,7.1e-09,i,0.7%,11%
COc1cccc(C2CC(=O)N3CN(c4cccc(Cl)c4C)CSC3=C2C#N)c1OC (centres undefined),nt,nt,nt,3.0%,?
COc1ccc(C2=C(C)CC(C)(C)NC2=O)cc1OC,i,1.2e-08,i,-1.8%,5%
C=CCOC(=O)CN1C(=O)c2ccccc2C1=O,nt,nt,nt,2.0%,-1%
O=C(NC1CCS(=O)(=O)C1)c1c(NC(=O)C2COc3ccccc3O2)sc2c1CCCC2 (centres undefined),i,1e-09,i,nt,nt
N#CC1=C(SCC(=O)c2cc3ccccc3oc2=O)NC(=O)C(C#N)C12CCCC2 (centres undefined),i,4.1e-08,i,10%,6%
Cc1nnc(SCC(=O)c2cc(C)n(-c3c(C)n(C)n(-c4ccccc4)c3=O)c2C)s1,i,2.9e-08,i,0.5%,3%
COc1ccc(Cc2nn3c(Cn4nnc5ccccc54)nnc3s2)cc1,i,1e-09,i,2.3%,nt
COc1cccc(CN(C(=O)c2cc3ccccc3oc2=O)C2CC2)c1,i,1e-09,i,-1.0%,6%
COc1cccc(NC(=O)CCS(=O)(=O)c2cccs2)c1,i,3.4e-09,i,-1.8%,-1%
CCCN(CCC)C(=O)Cn1c(=O)n(CCCCC(=O)NC2CCCC2)c(=O)c2ccccc21,i,1e-09,i,1.4%,22%[11.4 µM]
CCOc1ccc(Nc2ncnc(N)n2)cc1,nt,nt,nt,0.2%,-2%
CC(C)C(=O)Nc1nnc(CCc2nnc(NC(=O)C(C)C)s2)s1,i,2.5e-08,i,2.2%,?
O=P(CCNCc1ccco1)(c1ccccc1)c1ccccc1,nt,nt,nt,0.0%,?
Cc1nnc2sc(-c3ccc(NC(=O)c4cccnc4)cc3)nn12,i,4.9e-08,i,-3.1%,?
COCCNC(=O)CN(c1ccccc1OC)S(C)(=O)=O,nt,nt,nt,1.1%,1%[11.4 µM]
O=C1N(O)C2(C=CCCC2)/C(=N\O)C12CCCCC2 (centres undefined),nt,nt,nt,2.2%,1%
CC(C)(C#N)Nn1cnnc1,i,2.7e-09,i,-1.4%,6%
Cn1nnnc1SCc1cc(=O)[nH]c2ccccc12,i,1e-09,i,1.4%,4%
CCOC(=O)CC(N)c1ccc(OC)cc1 (centres undefined),i,7.5e-09,i,0.6%,3%
COCCNC(=O)CSc1nc2c(n1-c1ccccc1)CCCC2,i,1.7e-08,i,-0.9%,7%
COc1ccc2[nH]cc(CCNc3ncncc3-c3c(C)noc3C)c2c1,i,1.4e-08,i,2.7%,7%
CC12CC(NC(=O)N1c1cccc(C(=O)Nc3ncn[nH]3)c1)c1ccccc1O2 (centres undefined),i,8.2e-09,i,-0.9%,5%[11.4 µM]
CC(C)(C)NC(=O)C(c1ccc(F)cc1)N(Cc1ccco1)C(=O)c1csnn1 (centres undefined),i,5.1e-08,i,-1.5%,nt
Cc1ccccc1S(=O)(=O)Cc1ccc(C(=O)NCCN2CCN(Cc3ccccc3)CC2)o1,i,1.7e-08,i,0.7%,?
COc1ccc(C2NCCO2)cc1OC (centres undefined),i,1.6e-08,i,-1.8%,-1%
CCOC(=O)c1cc(-c2ccncc2)nc2c1c(C)nn2C,i,1e-09,i,8.6%,16%
COC(=O)Cc1c(C)c2c(O)cc(C)cc2oc1=O,i,6.8e-09,i,13%,19%
COc1ccccc1S(=O)(=O)Cc1ccc(C(=O)N2CCN(c3ccccc3)CC2)o1,i,4.9e-09,i,0.1%,12%
CCC1SC2=NC(C)=C(C(=O)OC)C(c3cccs3)N2C1=O (centres undefined),i,1.4e-09,i,0.5%,21%
CCC(=O)Nc1ccc(S(=O)(=O)Nc2cccnc2)cc1,i,2.3e-09,i,0.7%,-2%
Cc1cccc(Nc2ncnc3ccccc23)c1,i,1e-09,i,nt,nt
Cc1nc2ccc(S(=O)(=O)NCC(=O)N(C)Cc3ccco3)cc2s1,i,7.4e-09,i,-1.7%,-3%[11.4 µM]
COc1ccccc1NC(=O)N(Cc1ccco1)Cc1cc2cc(C)cc(C)c2[nH]c1=O,i,5.7e-08,i,4.8%,nt
COc1cccc(-c2cnc(NCc3cc(Cl)ccc3O)n2C)c1,i,2e-08,i,-0.2%,?
CCCc1cc(=O)oc2c(CN3CCN(C)CC3)c(O)c(Cl)cc12,i,1e-09,i,nt,nt

# Next section
compound,A488 autofl,A647 fluor,Resorufin autofl,AID923,TSHR ag
CCn1cc(C(=O)N2CCCC2)c(=O)c2cc(S(=O)(=O)N(C)C)ccc21,nt,nt,nt,0.5%,-7%
COC(=O)CC1=COC(O)C2C(CO)=CC[C@@H]12 (some centres undefined),nt,nt,nt,0.2%[11.5 µM],11%[11.4 µM]
CCn1c(=O)c(C(=O)CN2CCOCC2)c(N)n(Cc2ccccc2)c1=O,i,2.9e-09,i,2.7%,4%
CCOC(=O)c1[nH]c(C)c(CCC(=O)OC)c1C,i,4.6e-08,i,-1.4%,2%
CC(=O)OC1CC(C)(C)N(OC(=O)c2ccc(N)cc2)C(C)(C)C1,i,1.4e-08,i,-2.4%,10%
O=C(CSc1nnc(-c2ccc(S(=O)(=O)N3CCCC3)cc2)n1CC1CCCO1)NC1CC1 (centres undefined),i,5.4e-08,i,-2.2%,-11%

# Random excerpt: two records from the list, in no set order.
compound,A488 autofl,A647 fluor,Resorufin autofl,AID923,TSHR ag
CC1Cc2ccccc2N1C(=O)CSC1=NCCS1 (centres undefined),i,9e-09,i,0.9%,5%
Cc1nnc(SCC(=O)c2cc(C)n(-c3c(C)n(C)n(-c4ccccc4)c3=O)c2C)s1,i,2.9e-08,i,0.5%,3%
